RanGTP-Imp inh: disruptors of Ran-importin-beta complex formation – biochemical, FRET, CFP-Ran, YFP-importin-beta, homogeneous, primary screen | inhibition, % (concentration not given with the values) | 1.1% of 300,000 active | cell-free CFP-Ran/YFP-importin-beta FRET ratio;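 active = most replicates above 15%; inconclusive = exactly half above 15%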;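 also: 0% = DMSO wells and 100% = Ran loaded with GDP instead of GTP; wells of about 40 µL received 100 nL stock; the first replicate is given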
Beta apoptosis: blocks beta cell apoptosis. INS-1E cytokine-induced death, ATP luminescence, 48 h; percent of positive-control rescue, neutral wells zero. protection from apoptosis, % (test concentration not listed). 0.8% of 300,000 active. AID 435005;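 active = all replicates at 75% or more, or half of them and the mean; inconclusive = half reach 75% but not the mean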;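 also: 0% = cytokine-treated negative control wells and 100% = positive control rescue; higher means more ATP so stronger rescue from cytokine killing; wells of about 40 µL received 100 nL stock; the first replicate is given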
A1 inh: inhibitors of the anti-apoptotic protein A1, read as caspase activation; MEF A1-2A-BIM cells, Caspase-Glo 3/7 luminescence, 3 h; percent of clofoctol response, vehicle zero; caspase activation, % (test concentration not listed); 0.066% of 330,000 active; AID 2462;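 active = over half of replicate activation scores above 10%, or exactly half above 10 with the replicate mean above 10; inconclusive = replicate mean below 10 yet half the replicates above 10; inactive = over half of replicates below 10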;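 also: wells of about 30 µL received 50 nL stock; many hits fall short of the cut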
T cruzi repl: blocks replication of Trypanosoma cruzi; T. cruzi beta-gal in NIH3T3, luminescence, 90 h; inhibition, % (no concentration beside the values); 1.4% of 300,000 active; AID 1885;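 active = mean inhibition across valid replicates above about 55%, limit read from the data; inconclusive = mean below that limit but half or more replicates reach it; inactive = mean below it, under half of replicates reach it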;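 also: signal also drops with host cell toxicity which is not excluded here; 0% = plate median of DMSO wells and 100% = zero luminescence signal; higher percent means less beta-gal luminescence so fewer parasites; stock transfer was 50 nL into about 50 µL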
Vif TR-FRET: inhibitors of Vif binding to APOBEC3G peptide, primary screen, biochemical, TR-FRET, GST-Vif 1-94, biotin-A3G peptide, dose response retest (AID 1117319); TR-FRET GST-Vif / biotin-A3G peptide binding; higher % means a stronger effect; test concentration not given here; strong numbers were not always called active; inhibition, %, or IC50 in µM where a hit was titrated; 0.57% of 260,000 active;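 active = above the screen mean plus three standard deviations and confirmed in dose response; inconclusive = results disagree or hit not tested in dose response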;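 also: Vif residues 1-94 fused to GST binding biotinylated APOBEC3G peptide 110-148; 0% = full assay without inhibitor and 100% = GST in place of GST-Vif; retest series ran down from 100 µM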
MLL AF4-AF9 inh: blocks AF4 peptide binding to human AF9; 0.47% of 350,000 active; inhibition, % at 10 µM; P42568; AlphaScreen, biotin-AF4 peptide binding to FLAG-AF9;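 active = every replicate reaching a set inhibition limit, whatever the replicate mean, cut at about 25% in these data; inconclusive = mean inhibition reaches that limit but some replicates miss it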;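 also: 0% = plate neutral control median and 100% = total signal loss; the record names both 10 and 1 µM as test concentration; the first replicate is given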
LANA-H2B inh: blocks KSHV LANA binding to histone H2A/H2B | cell-free LANA-H2A/H2B peptide, fluorescence polarization | inhibition, % (test concentration not listed) | 0.6% of 320,000 active; in the data active = inhibition mostly above about 10%, no sharp cut-off; inactive = mostly below about 6.7%;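 also: stock transfer was 7.5 nL into about 10 µL; 0% = median of vehicle wells and 100% = median of positive control wells; one replicate is shown; the record names a cut of 25% in any replicate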
Target sequence (Q9QR71 whole entry, looked up): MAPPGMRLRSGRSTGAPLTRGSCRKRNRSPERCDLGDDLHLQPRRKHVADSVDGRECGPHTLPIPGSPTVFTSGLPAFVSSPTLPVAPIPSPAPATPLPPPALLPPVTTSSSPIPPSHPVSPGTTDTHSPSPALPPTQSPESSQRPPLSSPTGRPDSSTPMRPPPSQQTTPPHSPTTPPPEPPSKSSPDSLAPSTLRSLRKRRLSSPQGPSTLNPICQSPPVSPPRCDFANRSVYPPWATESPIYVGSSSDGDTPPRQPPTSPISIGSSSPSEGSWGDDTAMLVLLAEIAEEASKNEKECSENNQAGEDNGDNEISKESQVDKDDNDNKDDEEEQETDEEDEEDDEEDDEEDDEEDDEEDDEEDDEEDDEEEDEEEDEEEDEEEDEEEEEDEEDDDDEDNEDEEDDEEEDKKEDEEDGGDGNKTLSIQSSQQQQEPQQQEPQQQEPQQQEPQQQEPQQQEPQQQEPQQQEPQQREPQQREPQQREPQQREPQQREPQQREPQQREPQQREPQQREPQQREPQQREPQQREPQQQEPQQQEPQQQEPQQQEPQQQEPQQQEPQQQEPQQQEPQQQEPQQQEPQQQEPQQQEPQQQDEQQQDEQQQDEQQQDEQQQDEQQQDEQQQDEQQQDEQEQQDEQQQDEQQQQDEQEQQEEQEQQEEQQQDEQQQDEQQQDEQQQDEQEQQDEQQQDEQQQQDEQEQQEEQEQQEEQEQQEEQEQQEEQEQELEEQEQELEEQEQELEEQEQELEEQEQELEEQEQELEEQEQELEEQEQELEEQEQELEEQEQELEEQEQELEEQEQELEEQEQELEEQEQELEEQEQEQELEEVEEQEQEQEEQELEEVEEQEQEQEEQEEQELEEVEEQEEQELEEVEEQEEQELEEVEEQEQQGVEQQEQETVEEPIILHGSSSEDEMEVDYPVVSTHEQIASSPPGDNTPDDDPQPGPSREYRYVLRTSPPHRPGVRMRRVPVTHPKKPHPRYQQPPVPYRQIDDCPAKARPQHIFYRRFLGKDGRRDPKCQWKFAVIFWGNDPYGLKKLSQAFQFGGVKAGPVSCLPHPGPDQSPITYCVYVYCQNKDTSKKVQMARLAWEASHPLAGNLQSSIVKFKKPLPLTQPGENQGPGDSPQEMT
Calb FLC: affects C. albicans growth with fluconazole; C. albicans CaCi-2 (fluconazole-resistant clinical isolate) + fluconazole, Alamar Blue growth, 48 h; growth inhibition, % (concentration not given with the values); 0.57% of 300,000 active; AID 1979;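 active = most replicates above 75%; inconclusive = exactly half above 75%; inactive = most below 75%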;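 also: all wells also contain fluconazole at 8 µg/ml as a sub-toxic cotreatment; 0% = median of DMSO wells and 100% = median of geldanamycin control wells; wells of about 8 µL received 7.5 nL stock; the first replicate is given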
Active calls of the source: *; i = inactive; ? = inconclusive; / = no result given.

SMILES | RanGTP-Imp inh | Beta apoptosis | A1 inh | T cruzi repl | Vif TR-FRET | MLL AF4-AF9 inh | LANA-H2B inh | Calb FLC
COc1ccc(CCNC(=O)COC(=O)C2COc3ccccc3O2)cc1 (stereo not given) | / | 1.5 | 1.2 | / | -5.0% | 2.7 | 5.0 | /
O=C(NCCCNCCCNC(=O)c1ccc(/C=N/O)nc1)c1ccc(/C=N/O)nc1 | -7.2 | -2.0 | -0.5 | -7.2 | -1.7% | 0.8 | -3.0 | -8.7
Cc1ccc(-n2ccnc2SCC(=O)N(CC(C)C)C2CCS(=O)(=O)C2)c(C)c1 (stereo not given) | -3.1 | -9.5 | -0.2 | 1.9 | -4.8% | / | 6.1 | -2.4
O=C(c1ccc(Br)cc1)c1sc(N2CCOCC2)nc1-c1ccccc1 | -1.7 | 8.4 | 0.5 | 14.3 | -29.9% | -0.4 | 2.4 | -0.3
Cc1ccc(-c2n[nH]c(=O)c3ccccc23)c(C)c1 | 1.3 | -4.9 | 0.5 | -4.6 | 1.7% | 2.0 | 3.0 | 5.1
COc1ccc(S(=O)(=O)N2CCOCC2)cc1C(=O)N1CCCCC1 | 7.2 | -4.1 | -0.6 | -2.4 | / | 1.4 | 8.1 | -2.5
Cc1cc2c(cc1S(=O)(=O)N1CCN(c3ccccc3)CC1)OCC(=O)N2 | -3.1 | -8.5 | 1.3 | 1.9 | / | -14.0 | 6.6 | -10.6
O=C(CNC(=O)c1ccc2c(c1)OCCO2)N/N=C/c1cccc(Br)c1 | -0.8 | -1.2 | 0.5 | 12.9 | / | -11.7 | 4.7 | -2.0
COc1ccc(OCCNS(=O)(=O)Cc2ccccc2)cc1 | -2.8 | -4.5 | -0.5 | -2.4 | / | -2.7 | 0.9 | -46.9
Cc1ccc(C)c(C(=O)Nc2c(C(N)=O)oc3ccccc23)c1 | 0.2 | / | -0.5 | -7.3 | 11.8% | -2.7 | 4.5 | 2.6
CC(C)CCC(CCN1CCOCC1)c1ccc2c(c1)OCO2 (stereo not given) | 3.4 | 0.4 | -0.8 | -20.3 | -4.6% | / | -0.4 | -36.4
Cc1ccc(Cn2cccc2/C=N/NC(=S)Nc2ccc(C)cc2)cc1 | -0.1 | -0.9 | 1.0 | 25.2 | 1.2% | -0.4 | -4.4 | -3.2
Cc1nc(/C(N)=N/OC(=O)Cc2ccccc2)no1 | 2.6 | -7.8 | 0.0 | -3.1 | 5.0% | 1.1 | -4.8 | -27.4
COc1ccc2cc(C(=O)Nc3ccc(S(N)(=O)=O)cc3)sc(=O)c2c1OC | 3.5 | 3.0 | 0.2 | 0.9 | -23.3% | 2.2 | -6.8 | -8.5
CCOc1ccc(NC2CCCCC2NS(=O)(=O)c2ccccc2)cc1 (stereo not given) | 0.4 | -1.5 | 1.4 | 0.5 | / | 11.6 | -5.8 | -22.5
Cn1cnc([N+](=O)[O-])c1N=C(N)N | -3.4 | -9.0 | 0.5 | -7.6 | ? | 3.6 | 3.4 | -1.5
CC(C)CCNC1=CC(=O)CC(c2ccccc2)C1 (stereo not given) | -0.8 | 6.1 | -0.4 | 14.6 | -4.6% | -7.0 | -0.3 | -5.7
CCc1nc(Nc2ccc(NC(C)=O)cc2)c2oc3ccccc3c2n1 | 2.7 | 4.6 | 0.0 | 7.9 | / | -0.4 | -0.9 | 0.8
COC(=O)c1cn(CC(=O)NC2CCCCCC2)c2ccccc12 | -1.2 | 6.4 | 1.3 | 6.3 | 13.4% | / | -2.5 | -7.4
CC(C)(C)c1ccc(OCc2ccc(C(=O)N/N=C3\CC4CC=CC34)cc2)cc1 (stereo not given) | -0.3 | -0.1 | -0.1 | 3.9 | -3.2% | / | -3.8 | -15.4
Nc1nc(-c2ccccc2)c(C(=O)Nc2ccccc2)s1 | -0.4 | -15.5 | 0.9 | 6.8 | -9.3% | 1.6 | -2.7 | -2.5
NC(=O)CN1C(=O)C(=O)N(Cc2cccc(Cl)c2)C1=O | 0.7 | 0.9 | -0.2 | -3.2 | -13.3% | -1.8 | 2.5 | -8.1
Cc1ccc(-n2[nH]c(C)c(C=Nc3ccc4[nH]c(=O)[nH]c4c3)c2=O)cc1 | 0.8 | 28.0 | -2.4 | 2.5 | 2.5% | -2.3 | 4.8 | 26.5
Cc1nn(C(C)C(=O)NCCc2ccccc2)c(=O)c2cc3occc3n12 (stereo not given) | 3.9 | -2.7 | -0.1 | -10.0 | -1.1% | -1.2 | 0.1 | 20.1
Cn1c(=O)c(C(=S)NC(=O)C2CC2)c(N)n(Cc2ccccc2)c1=O | 4.7 | 1.5 | -0.4 | 10.5 | 1.6% | / | -1.8 | 35.8
Cc1c(C(=O)O)sc2nc(SCC(=O)Nc3ccc(S(=O)(=O)NC(C)(C)C)cc3)[nH]c(=O)c12 | -0.5 | -1.3 | -0.6 | -20.1 | -2.9% | -3.4 | -1.8 | 9.7
O=C(Nc1ccc(OC(F)(F)F)cc1)c1cnccn1 | 3.0 | -0.9 | -4.9 | -6.5 | 6.2% | 0.7 | 13.3 | 9.6
O=S(=O)(Nc1cccnc1)c1ccc(Cl)c(C(F)(F)F)c1 | / | 2.5 | 0.2 | -17.9 | 0.9% | / | 2.9 | 74.3
Cc1ccc(N=C2NC(=O)/C(=C\c3ccc(C)s3)S2)cc1 | 2.1 | -6.5 | 0.0 | -0.3 | 2.5% | -0.1 | 0.6 | 22.6
Cc1ccc(CNC(=O)CCCNS(=O)(=O)c2cccc3nonc23)cc1 | -2.8 | -1.1 | 1.1 | -8.8 | 2.3% | / | 1.3 | -0.6
O=[N+]([O-])c1cc(S(=O)(=O)N2CCCC2)ccc1O | -2.0 | 2.5 | 0.1 | 0.0 | -7.4% | / | -1.4 | 34.7
COc1ccc2c(Cl)c(-c3nnc4n3CCCCC4)sc2c1 | -0.5 | -9.9 | -1.1 | 9.8 | -5.2% | / | 3.8 | 2.4
C=CCOc1ccc(/C=N/NC(=O)c2cc3c(OC)cc(OC)cc3[nH]2)cc1 | 0.3 | -7.8 | -2.7 | 22.5 | -3.3% | 4.6 | 1.9 | 23.2
Cc1ccc(S(=O)(=O)N2CCOCC2)cc1NC(=O)COc1ncnc2ccccc12 | 1.3 | -3.3 | 0.9 | 5.2 | 16.0% | / | 0.7 | 7.0
O=C1C(=Cc2cccn2-c2ccccc2)C(=O)c2ccccc21 | -33.0 | 0.6 | -0.9 | -12.3 | 4.0% | / | 127.0* | 20.7
Cc1ccc(S(=O)(=O)n2nc(C)c(S(=O)(=O)N3CCCCC3)c2C)cc1 | -1.5 | -8.9 | -1.1 | -6.1 | / | 2.5 | -0.1 | -2.9
CCCCc1c(C)nc2ccc(C(=O)OCC)cc2c1Cl | 1.6 | -1.2 | 0.6 | -3.2 | 10.9% | / | 0.6 | -3.1
Cc1cc(C(=O)OCC(=O)Nc2cc(C)on2)c2ccccc2n1 | 4.3 | -5.0 | -0.4 | -4.4 | 31.2% | / | -1.8 | -4.2
CC1CC(C)CN(c2ncnc3c2cnn3Cc2ccc(Cl)cc2)C1 (stereo not given) | 1.4 | -6.8 | 0.4 | 47.4 | 2.0% | / | 6.4 | 0.1
OCCCNc1c2c(nc3cc(-c4ccc(Cl)cc4)nn13)CCC2 | -1.5 | -0.4 | 0.6 | 35.8 | / | -0.5 | 1.8 | -6.5
Cc1noc(NS(=O)(=O)c2ccc(NC(=O)CSc3ncccn3)cc2)c1C | -1.7 | / | -0.1 | -5.8 | 12.5% | -4.7 | 0.0 | 0.6
Cc1cccc(NS(=O)(=O)c2ccc(C)c(C(=O)N(C)C)c2)c1 | / | -3.0 | 1.1 | / | 10.5% | -0.7 | i | /
CCCCc1ccc(NC(=S)NN2CCOCC2)cc1 | -6.6 | 1.7 | 0.3 | -1.2 | 2.2% | 3.4 | -2.7 | -5.8
O=C(NCCN1CCN(C(=O)c2cc3ccccc3oc2=O)CC1)c1cc2ccccc2oc1=O | 4.4 | -4.3 | ? | -10.4 | ? | / | -1.8 | 0.3
CCC1CCCCN1CCCNC(=O)c1cn(CC)c2ccc(S(=O)(=O)N(C)C3CCCCC3)cc2c1=O (stereo not given) | 0.6 | 1.4 | 0.4 | 26.2 | / | -1.0 | 0.9 | -3.3
CCOC(=O)N1CCc2c(sc3c2c(=O)n(Cc2ccccc2)c(=O)n3CC(=O)NCC2CCCO2)C1 (stereo not given) | 0.4 | -0.3 | 0.7 | 6.2 | -2.6% | 0.0 | 0.7 | 4.0
O=C(O)C1Cc2[nH]cnc2C(c2ccc(F)cc2)N1 (stereo not given) | -1.4 | -7.2 | 0.2 | -6.6 | 2.2% | -1.9 | -2.1 | -7.1
O=C(/C=C/c1ccco1)NCc1ccc(F)cc1 | -5.7 | -6.1 | 0.2 | 11.4 | 28.3% | -2.2 | -5.4 | -12.7
CC(=O)NNc1nc2ccccc2s1 | -6.4 | 2.1 | 0.0 | -0.4 | 5.0% | / | -1.2 | -38.1
COc1ccc(N=Cc2c(OC)ccc3ccccc23)cc1 | -1.9 | 0.9 | 0.9 | 43.4 | / | 3.5 | 0.4 | -12.6
NS(=O)(=O)c1cccc(NC(=O)c2cc(=O)c3ccccc3o2)c1 | ? | 2.1 | -0.3 | -11.6 | / | -7.7 | 1.2 | 1.2
Cc1csc(NC(=O)CCC(=O)c2cccs2)n1 | -0.7 | 3.0 | 1.6 | 0.9 | 2.3% | 2.4 | -5.3 | -15.0
COc1ccc2[nH]c(CN3CCC(CO)(CCOc4ccccc4)CC3)c(C)c2c1 | -3.2 | 2.2 | 1.0 | 33.4 | 23.7% | 21.2 | -8.3 | 8.0
CCc1cc(C)cc(OCCNC(=O)c2cncc(Br)c2)c1 | -1.7 | -8.9 | 0.0 | 3.2 | 8.9% | / | -5.5 | 7.6
COc1ccc(C2(CNS(=O)(=O)c3ccccc3)CCOCC2)cc1 | 0.9 | 3.3 | -0.2 | 6.6 | 2.1% | -0.3 | 7.0 | 6.9
CCOc1ccc(C(=O)Cc2ccc3oc(C(=O)O)cc3c2)c(O)c1 | 8.7 | 2.2 | 0.8 | -5.8 | 21.7% | / | -0.2 | -0.7
CCCCc1c(O)nc(SCC(=O)Nc2cccc3ccccc23)n(-c2ccccc2OC)c1=O | 6.1 | -9.9 | 0.0 | -6.4 | / | -0.9 | -0.1 | 83.1*
CC(=O)Nc1ccc(SC[C@H](Cc2ccccc2)N2CC[C@@H](C)CCC2=O)cc1 | / | 4.5 | 1.0 | / | / | -4.3 | -1.7 | /
COc1cc(C(=O)NCc2cn3ccccc3n2)cc(OC)c1OC | 3.9 | -4.7 | 0.5 | -11.6 | 0.8% | 3.7 | 4.7 | -9.0
COc1ccc(/C=N/NC(=O)C(=O)NCc2cccnc2)cc1 | -5.1 | -0.1 | 0.0 | -6.0 | / | -1.5 | -5.7 | -5.6
CN(CCOc1ccc(Cl)cc1)Cc1cccc(S(=O)(=O)N(C)C)c1 | 4.7 | 2.6 | 0.6 | 38.1 | / | -6.9 | -2.1 | -24.4

Compound activity as filed in PubChem BioAssay.
